Screening results deposited in PubChem BioAssay by National Center for Advancing Translational Sciences (NCATS).
NS1 inh: inhibitors of influenza NS1 protein function | S. cerevisiae slowed by influenza A NS1, growth recovery by OD600 | Potency, µM (titrated, usually from 46.1 µM), without a hit: top-dose activity, positive = more growth | actives 0.4% (n = 270,000) | AID 2326; active means well fitted rising curve with a large enough effect; inconclusive means small, poorly fitted or top-dose-only effect; inactive means no such curve, though single readings can be large or run the other way; also: nearly all actives have a fitted effect of over 50% in size
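Compounds were scored for reversing the slow growth caused by influenza A NS1 in S. cerevisiae, measured by optical density at 600 nm. Assay medium contained 2% galactose at pH 6.0; NS1-free yeast of the same strain were the positive control.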
2A StopGo: FMDV 2A StopGo reporter, luciferase signal; Potency, µM (highest dose often 57.9 µM), for inactives: at the highest dose signal change, negative = less light; AID 1159524; actives 1.2% (n = 410,000); human cells with a luciferase reporter of 2A StopGo recoding; control for the full effect not named in the record; active = well fitted falling curve with a large enough effect; inconclusive = small, poorly fitted or top-dose-only effect; inactive = no such curve, though single readings can be large or run the other way; tested in HEK293T cells; also: % is scaled to controls: 0 for no effect and ±100 for the full control effect; nearly all actives have a fitted effect of over 45% in size; luciferase light after 4 h
SARS PLP yeast: SARS-CoV PLP inhibition in yeast; S. cerevisiae expressing SARS-CoV PLpro, growth rescue; control for the full effect not named in the record; Potency, µM (series often up to 32.9 µM), for inactives: at the top dose activity, positive = growth rescue; actives 0.19% (n = 330,000); AID 485353; active means well fitted rising curve with a large enough effect; inconclusive means small, poorly fitted or top-dose-only effect; inactive means no such curve, though single readings can be large or run the other way; also: 0% is about no effect; nearly all actives have a fitted effect of over 55% in size; growth read by luminescence after 48 h
Marburg entry inh: blocks Marburg virus binding to or entry into cells; actives 1.8% (n = 300,000); Potency, µM (doses to about 37.8 µM), without a hit: at the top dose activity change, negative = inhibition, usual class: inhibitors; Marburg virus pseudotyped entry inhibition, cell reporter; control for the full effect not named in the record; about a third of the inactives were read at about 46 µM; active = well fitted inhibition curve with a large enough effect; inconclusive = small, poorly fitted or top-dose-only effect, or effect the other way; inactive = flat fitted curve, though single readings scatter; tested in HEK293 cells; about a fifth of its hits are not listed in these tables; also: % is scaled to controls: 0 for no effect and ±100 for the full control effect; luciferase read-out
Lassa entry inh: inhibitors of Lassa virus binding or cell entry. Lassa virus pseudotype entry inhibition, cell reporter; control for the full effect not named in the record. actives 1.2% (n = 300,000). Potency, µM (top dose mostly 37.9 µM), without a hit: at the highest dose activity change, negative = inhibition, most hits filed as inhibitors; active means well fitted inhibition curve with a large enough effect; inconclusive means small, poorly fitted or top-dose-only effect, or effect the other way; inactive means flat fitted curve, though single readings scatter; tested in HEK293 cells; also: % is scaled to controls: 0 for no effect and ±100 for the full control effect; nearly all actives have a fitted effect of over 50% in size; luciferase read-out
RE007 growth inh: less growth of the S. pombe RE007 Vpr strain. S. pombe RE007 Vpr strain, BacTiter-Glo ATP luminescence, 24 h; control for the full effect not named in the record. Potency, µM (titrated, usually from 92.2 µM), for the others: at the highest dose activity change, negative = less growth. actives 0.21% (n = 360,000). AID 651644; active = well fitted falling curve with a large enough effect; inconclusive = small, poorly fitted or top-dose-only effect; inactive = no such curve, though single readings can be large or run the other way;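 also: % is scaled to controls: 0 for no effect and ±100 for the full control effect; nearly all actives have a fitted effect of over 50% in size; the assay follows cell death caused by Vpr and the record does not say whether a fall means rescue or toxicity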
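Fission yeast RE007 carrying one integrated HIV-1 vpr copy, seeded at OD 0.01 in PMG+AL medium with 23 nL pinned compound. Grown 24 h at 30 degrees; viability read by BacTiter-Glo luminescence after 5 min.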
Cruzain noTriton: inhibitors of Trypanosoma cruzi cruzain without detergent; P25779; actives 2.3% (n = 200,000); Potency, µM, for the others: max response, negative = inhibition, actives largely listed as inhibitors; purified cruzain, Z-FR-AMC fluorescence, no detergent;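 also: plate controls were enzyme without inhibitor for no effect and buffer without enzyme for full effect; nearly all actives have a fitted effect of over 40% in size; top concentration of the series not given in the record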
Target sequence (P25779 123-467 limits assumed): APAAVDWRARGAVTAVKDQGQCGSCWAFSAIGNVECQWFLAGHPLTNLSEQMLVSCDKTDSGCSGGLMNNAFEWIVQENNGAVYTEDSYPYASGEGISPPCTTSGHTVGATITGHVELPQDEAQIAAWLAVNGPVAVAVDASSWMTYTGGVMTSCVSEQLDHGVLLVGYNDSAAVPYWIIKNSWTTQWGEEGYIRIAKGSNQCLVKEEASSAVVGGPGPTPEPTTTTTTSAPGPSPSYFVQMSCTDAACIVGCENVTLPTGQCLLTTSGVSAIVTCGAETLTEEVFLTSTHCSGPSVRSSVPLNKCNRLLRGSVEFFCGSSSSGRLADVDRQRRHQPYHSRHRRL
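Detergent-free condition (0.00005% Triton X-100) in acetate buffer pH 5.5 with DTT. 1.5 nM enzyme and compound were pre-mixed 15 min, then 2 uM Z-FR-AMC substrate added; reaction progress from fluorescence change between first and third reads (60 s).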
Cruzain inh Det: inhibitors of Trypanosoma cruzi cruzain with detergent | P25779 | purified cruzain, Z-FR-AMC fluorescence, 0.01% Triton | Potency, µM, for inactives: max response, negative = inhibition, usual class: inhibitors | actives 0.43% (n = 200,000);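 also: plate controls were neutral wells for no effect and buffer without enzyme for full effect; nearly all actives have a fitted effect of over 40% in size; top concentration of the series not given in the record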
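Compounds were screened in titration against cruzain (1.5 nM) with 0.01% Triton X-100 to counter colloidal aggregation. Activity was the AMC fluorescence increase over 60 s after adding 2 uM Z-FR-AMC at pH 5.5.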
Starred values were filed as active, the others as inactive; ? = inconclusive; / = no result given; & = joins results of further samples; [ ] = another dose, or the depositor's remark. Unless noted, calls follow the shape of the dose curve; as a rule, active = well fitted curve in the direction sought with a large enough effect; inconclusive = small, poorly fitted or top-dose-only effect, or another doubt; inactive = no such curve, though single readings can be large; an effect the other way counts as inactive or inconclusive. Potency is read from the fitted curve at half-maximal effect.

SMILES | NS1 inh | 2A StopGo | SARS PLP yeast | Marburg entry inh | Lassa entry inh | RE007 growth inh | Cruzain noTriton | Cruzain inh Det
O=C(NCC(c1cccs1)N1CCOCC1)c1cc([N+](=O)[O-])cc([N+](=O)[O-])c1 (stereo not given) | -1% | -16% | 9% | -26% | -1% | 15% | 1% | -1.9%
Cc1cc(C)n2nc(Sc3ncccc3[N+](=O)[O-])nc2n1 | 4% | -13% | 0% | / | / | 15% | / | /
COC(=O)c1cn(S(=O)(=O)c2ccccc2)c2ccccc12 | -5% | -8% | -5% | ? | -23%[46.1 µM] | 6% | / | /
CC(NC(=O)c1ccccc1NC(=O)c1nsc2ccccc12)c1ccccc1 (stereo not given) | / | 19% | / | / | ? | / | 3% | 1.8%
O=[N+]([O-])c1ccc(CSc2nc3ccccc3[nH]2)cc1 | 5% | -26% | -17% | ? | ? | -25% | -3% | -14%
O=C(Nc1ccccc1)c1n[nH]c(Cn2cncn2)n1 | 16% | 8% | 6% | -1% | -1% | 16% | 7% | -1.9%
COc1cccc(OC)c1C(=O)Nc1ccccc1C(=O)N1CCCC1 | -5% | -14% | 0% | 7% | 1% | -5% | / | /
O=C(CSc1nnc(COc2ccc(Cl)cc2)o1)NC1CCCCC1 | / | 9% | -5% | 22% | 8% | 15% | / | /
Cc1ccc(-c2nnc(Nc3cccc(Cl)c3)c3ccccc23)cc1S(=O)(=O)N1CCCCC1 | / | 2% | / | / | -25%[46.1 µM] | / | 7.9µM* | -2.3%
CC(C)c1nn2c(=O)cc(COC(=O)c3ccccc3NC(=O)c3cccc(Cl)c3)nc2s1 | / | 8.9µM* | / | / | 17%[46.1 µM] | / | 16% | -0.3%
Fc1ccc(CNC(=S)Nc2ccc(Cl)cc2Cl)cc1 | -1% | 22% | 7% | -7% | ? | 5% | -2% | 1.1%
Cn1nc(C(F)(F)F)c(-c2ccc(Br)cc2)c1NC(=O)c1cccnc1 | 1% | -2% | -5% | / | / | 6% | / | /
COc1ccccc1N=C1SC(C(=O)Nc2ccccc2OC)CC(=O)N1C (stereo not given) | / | -14% | / | / | 6%[46.1 µM] | / | ? | -3.3%
Cc1c(C(=O)NCc2ccco2)oc2ccc(S(=O)(=O)N3CCC4(CC3)OCCO4)cc12 | -6% | -20% | -1% | 12%&12% | 3% | -9% | ? | -2.4%
Fc1ccc(-n2cc(-c3ccccc3)[n+]3c2SCC3)cc1 | 2% | -22% | 1% | -20% | 2% | -1% | / | /
Cc1noc(C)c1C(=O)Nc1ccccc1C(=O)NCCc1ccccc1 | -4% | -21% | -9% | ? | -17%[46.1 µM] | -11% | / | /
CCOC(=O)N1CCN(C(=O)Cc2cccc3ccccc23)CC1 | -2% | -4% | 1% | / | / | 23% | / | /
CSCCC(NS(=O)(=O)c1cccs1)C(=O)NCc1ccccc1 (stereo not given) | 7% | 19% | ? | 4% | -13% | -8% | 3% | -0.1%
CCCCn1c(N)c(N(CCOC)C(=O)COC(=O)CSc2cc(C)c3ccccc3n2)c(=O)[nH]c1=O | / | -19% | -5% | 9%[46.1 µM] | -17% | 4% | / | /
C[C@@H](C(=O)N[C@@H](Cc1ccccc1)C(=O)O)n1nnc2ccccc2c1=O | 0% | -8% | 1% | / | / | 8% | / | /
O=C(c1ccc(N2CCN(C3CC(=O)N(Cc4cccs4)C3=O)CC2)cc1)c1cccnc1 (stereo not given) | / | ? | -4% | ? | ? | -12% | / | /
O=C(CN1CCC(n2nnc3cc(F)ccc32)CC1)NCCc1nc2ccccc2[nH]1 | -2% | / | -1% | -4% | ? | 3% | 7% | 12%
Cc1ccc(OCCn2cc(/C=N/NC(=O)c3ccncc3)c3ccccc32)cc1 | 14% | ? | ? | ? | ? | 14% | ? | -9.3%
CC(=O)Nc1cccc(-c2nc3ccc(NC(C)=O)cc3s2)c1 | -2% | 33%[activator] | 0% | / | / | 6% | / | /
COc1ccccc1CCNC(=O)c1ccc2c(c1)c(C)c(C)n2C | / | 24% | / | / | 21%[46.1 µM] | / | ? | -3.3%
O=C(COC(=O)c1ccc(Cl)nc1)NCCc1ccc(Cl)cc1 | / | 4% | -12% | 5% | -3% | 3% | / | /
CC1=Nc2cc(C(=O)NCC3CCCO3)ccc2Sc2ccc(Br)cc21 (stereo not given) | -2% | 8% | -4% | / | / | -4% | / | /
CCCCCCCCNc1ncnc2ccccc12 | -153% | 0% | -27% | ? | ? | ? | 9% | -3.3%
COc1ccc(C(=O)O)cc1NCc1ccc(C)s1 | -70% | -10% | -6% | ? | 3%[46.1 µM] | -12% | / | /
CCOC(=O)N1CCN(C(=O)c2ccc(Cl)nc2)CC1 | -3% | -15% | 3% | -27%[46.1 µM] | -1%[46.1 µM] | 1% | / | /

2 records picked at random from the list so far, as already listed:
SMILES | NS1 inh | 2A StopGo | SARS PLP yeast | Marburg entry inh | Lassa entry inh | RE007 growth inh | Cruzain noTriton | Cruzain inh Det
Cc1ccc(OCCn2cc(/C=N/NC(=O)c3ccncc3)c3ccccc32)cc1 | 14% | ? | ? | ? | ? | 14% | ? | -9.3%
COc1ccccc1CCNC(=O)c1ccc2c(c1)c(C)c(C)n2C | / | 24% | / | / | 21%[46.1 µM] | / | ? | -3.3%

(next part)
SMILES | NS1 inh | 2A StopGo | SARS PLP yeast | Marburg entry inh | Lassa entry inh | RE007 growth inh | Cruzain noTriton | Cruzain inh Det
CCCOc1ccc(C2c3c(-c4ccccc4O)n[nH]c3C(=O)N2Cc2cccnc2)cc1 (stereo not given) | / | -7% | / | ? | / | / | -12% | -11%
Nc1cc(N)cc(-c2nc3ccccc3[nH]2)c1 | 6% | 24% | -2% | 5% | 21% | -9% | -21% | ?
CCCCc1ccc(NC(=O)CSc2nnc(C)c(=O)n2N)cc1 | 26% | 0% | 0% | / | / | 2% | / | /
O=C(O)c1cc2c(=O)c3ccccc3oc2nc1C(F)(F)F | 4% | 3% | 1% | 3%[46.1 µM] | 10%[46.1 µM] | 7% | / | /
CCOc1ccc(N=C2NC(=O)/C(=C/C(=O)OC)S2)cc1 | -6% | -24% | -3% | ? | ? | 20% | 18% | -1.4%
Cc1ccc(S(=O)(=O)N(C)c2cc(S(=O)(=O)Nc3ccncc3)c(C)cc2C)cc1 | 2% | 20% | -5% | 6% | -9% | 12% | 2% | -3.0%
COc1ccc(NC(=O)CSc2nc(-c3ccco3)nc3cc(=O)[nH]n23)cc1 | / | -17% | / | / | -1%[46.1 µM] | / | 2% | -4.8%
CC(C)CC(=O)Nc1nnc(SCC(=O)NCC2CCCO2)s1 (stereo not given) | -7% | 3% | 2% | 29% | 6% | 6% | / | /
Cc1ccc(-n2ncc(C(=O)N3CCN(c4cccc(C)c4)C(C)C3)c2C2CCN(C(=O)OC(C)(C)C)CC2)cc1 (stereo not given) | / | 0% | / | / | ? | / | ? | -2.0%
CC1CCCCC1n1c(-c2cccnc2)n[nH]c1=S (stereo not given) | -5% | -4% | 0% | / | / | 9% | / | /
CCN(CC)c1nc(N(CC)CC)[nH]c(=O)n1 | 4% | -13% | / | 2% | 0% | -9% | / | /
CCc1nnc(NC(=O)CSc2ccc(Cl)cc2)s1 | 14% | -15% | ? | 0% | -1% | 2% | / | /
COCCn1c(SCC(=O)Nc2ccccc2C(F)(F)F)nc2ccccc2c1=O | -16% | -10% | -7% | ? | 0%[46.1 µM] | -1% | / | /
COc1ccc(NC(=O)CN(c2c(C)cccc2C)S(C)(=O)=O)cc1 | 7% | 3% | -5% | / | / | -14% | / | /
CCOC(=O)C1CCCN(C(=O)Cn2cccc2C(=O)c2ccccc2)C1 (stereo not given) | 7% | -17% | 2% | -12% | -25% | 2% | 5% | 1.1%
COC(=O)c1ccc(COC(=O)c2cc3ccccc3oc2=O)cc1 | -12% | 37%[activator] | 7% | / | / | 1% | / | /
COc1cc(NS(=O)(=O)c2ccc3c(c2)oc(=O)n3C)cc(OC)c1OC | -8% | -24% | 2% | / | / | 3% | 10% | 8.7%
Cc1oc2c(c1C(=O)NCc1ccccc1)CCCC2 | -6% | / | -3% | 11% | -23% | -11% | 1% | 1.5%
COc1ccc(O)c(C(=O)c2cc(C#N)c(=O)n(CC3CCCO3)c2)c1 (stereo not given) | 2% | 8% | -4% | 19% | 0% | 7% | 1% | -3.6%
CCOc1ccccc1/C=C/c1onc(C)c1S(=O)(=O)N1CCC(C(=O)NC(C)(C)C)CC1 | ? | 14% | 0% | / | / | 0% | / | /
O=C(O)c1nccnc1C(=O)N1CCN(c2ccccc2)CC1 | 14% | -13% | ? | -3% | 3% | 55% | -7% | -1.3%
COCCn1nnnc1C(c1cccc(C(F)(F)F)c1)N1CCN(Cc2ccccc2)CC1 (stereo not given) | -10% | 0% | -6% | -20% | -5% | 1% | -4% | 4.0%
Cc1cnn(CCC(=O)NNC(=S)Nc2ccccc2)c1 | 5% | -8% | -4% | -1% | 1% | -3% | 0% | -0.7%
O=C(Nc1ccc(N2CCOCC2)cc1)c1ccc(Cl)cc1N1CCCC1=O | / | 12% | -5% | 24% | 0% | -17% | / | /
CCN1CCN(c2ccc(S(=O)(=O)N3CCCCC3)cc2NC(=O)c2ccc(C)o2)CC1 | / | -18% | 0% | ? | ? | 27% | / | /
Cc1c(C(=O)Nc2ccc(S(=O)(=O)N(C)C3CCN(C)CC3)cc2)oc2c(Cl)cccc12 | / | -29% | / | ? | ? | -2% | / | /
C=CCOc1ccc(/C=C/C(=O)OCC(=O)N(C)CC(=O)Nc2ccccc2Cl)cc1 | / | ? | -10% | 19% | 8% | -22% | / | /
O=C(CSc1nc2ncccc2[nH]1)NCc1ccco1 | 10% | -3% | 4% | / | / | -14% | / | /
CCCCCCCSc1nc(N)cc(=O)[nH]1 | 0% | -23% | 1% | 14% | 7% | 1% | -7% | 3.7%
COC(=O)Nc1ccc(S(=O)(=O)N2CCCC(C(=O)N3CCN(C)CC3)C2)cc1 (stereo not given) | 0% | -23% | -1% | / | / | 8% | / | /
C1CN(c2nc(N3CCOCC3)nc(N3CCOCC3)n2)CCO1 | 2% | 11% | 0% | / | / | -1% | / | /
